MARV entry inh – inhibitors of Marburg virus binding or cell entry | Marburg virus pseudotyped entry inhibition, cell reporter; control for the full effect not named in the record; about a third of the inactives were read at about 46 µM | Potency, µM (titrated, usually from 37.8 µM), inactives show at the top dose activity change, negative = inhibition, most hits filed as inhibitors | 300,000 tested, 1.8% active; active = well fitted inhibition curve with a large enough effect; inconclusive = small, poorly fitted or top-dose-only effect, or effect the other way; inactive = flat fitted curve, though single readings scatter; tested in HEK293 cells; about a fifth of its hits are not listed in these tables; further: on the % scale 0 is the no-effect control and ±100 the full control effect; luciferase read-out
RE007 growth inh – less growth of the S. pombe RE007 Vpr strain; S. pombe RE007 Vpr strain, BacTiter-Glo ATP luminescence, 24 h; control for the full effect not named in the record; Potency, µM (series often up to 92.2 µM), for the others: top-dose activity change, negative = less growth; 360,000 tested, 0.21% active; active = well fitted falling curve with a large enough effect; inconclusive = small, poorly fitted or top-dose-only effect; inactive = no such curve, though single readings can be large or run the other way;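 further: on the % scale 0 is the no-effect control and ±100 the full control effect; nearly all actives have a fitted effect of over 50% in size; the assay follows cell death caused by Vpr and the record does not say whether a fall means rescue or toxicity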
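Fission yeast strain RE007, carrying one chromosomally integrated HIV-1 vpr copy, was seeded at OD 0.01 in PMG+AL medium with 23 nL pinned compound. After 24 h at 30 °C and 99% humidity, viability was read by BacTiter-Glo luminescence.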
Cruzain noTriton – cruzain (T. cruzi) inhibition without detergent | AID 1476 | purified cruzain, Z-FR-AMC fluorescence, no detergent | P25779 | Potency, µM, without a hit: max response, negative = inhibition, usual class: inhibitors | 200,000 tested, 2.3% active;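 further: plate controls were enzyme without inhibitor for no effect and buffer without enzyme for full effect; nearly all actives have a fitted effect of over 40% in size; top concentration of the series not given in the record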
Target sequence (P25779 123-467 limits assumed): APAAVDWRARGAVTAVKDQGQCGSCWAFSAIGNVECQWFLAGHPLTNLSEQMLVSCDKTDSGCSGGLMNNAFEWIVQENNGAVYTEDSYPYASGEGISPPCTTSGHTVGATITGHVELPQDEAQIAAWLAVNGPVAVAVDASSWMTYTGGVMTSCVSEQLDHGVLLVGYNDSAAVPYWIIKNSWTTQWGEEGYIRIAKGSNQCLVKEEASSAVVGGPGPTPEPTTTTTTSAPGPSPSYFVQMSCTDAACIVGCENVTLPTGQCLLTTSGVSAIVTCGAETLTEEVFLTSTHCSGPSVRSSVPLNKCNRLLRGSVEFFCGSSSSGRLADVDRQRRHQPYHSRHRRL
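Detergent-free condition (0.00005% Triton X-100) in acetate buffer pH 5.5 with DTT. 1.5 nM enzyme and compound were pre-mixed 15 min, then 2 uM Z-FR-AMC substrate added; reaction progress from fluorescence change between first and third reads (60 s).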
Cruzain inh Det – blocks cruzain activity in presence of Triton detergent | AID 1478 | purified cruzain, Z-FR-AMC fluorescence, 0.01% Triton | P25779 | 200,000 tested, 0.43% active | Potency, µM, inactives show max response, negative = inhibition, actives largely listed as inhibitors;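 further: plate controls were neutral wells for no effect and buffer without enzyme for full effect; nearly all actives have a fitted effect of over 40% in size; top concentration of the series not given in the record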
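Steps: dispense cruzain (1.5 nM final) in acetate buffer pH 5.5 with DTT and 0.01% Triton X-100; pin-transfer compounds; incubate 15 min RT; add Z-FR-AMC (2 uM final); read fluorescence every 30 s, using the 60 s intensity change.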
2A StopGo – lowers the luciferase signal of an FMDV 2A StopGo reporter. human cells with a luciferase reporter of 2A StopGo recoding; control for the full effect not named in the record. Potency, µM (highest dose often 57.9 µM), for inactives: at the highest dose signal change, negative = less light. 410,000 tested, 1.2% active; active = well fitted falling curve with a large enough effect; inconclusive = small, poorly fitted or top-dose-only effect; inactive = no such curve, though single readings can be large or run the other way; tested in HEK293T cells; further: on the % scale 0 is the no-effect control and ±100 the full control effect; nearly all actives have a fitted effect of over 45% in size; luciferase light after 4 h
NS1 function inh – influenza NS1 inhibition | S. cerevisiae slowed by influenza A NS1, growth recovery by OD600 | Potency, µM (series often up to 46.1 µM), for the others: at the top dose activity, positive = more growth | 270,000 tested, 0.4% active; active means well fitted rising curve with a large enough effect; inconclusive means small, poorly fitted or top-dose-only effect; inactive means no such curve, though single readings can be large or run the other way; further: nearly all actives have a fitted effect of over 50% in size
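Read-out: OD600 growth recovery of NS1-expressing budding yeast. Cells grown overnight at 30C in -URA glucose medium, washed, resuspended and diluted 1:100 in 2% galactose assay medium, pH 6.0. Same strain lacking NS1 served as positive control.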
SARS PLP yeast – inhibitors of SARS-CoV papain-like protease in yeast; 330,000 tested, 0.19% active; Potency, µM (series often up to 32.9 µM), for inactives: at the highest dose activity, positive = growth rescue; S. cerevisiae expressing SARS-CoV PLpro, growth rescue; control for the full effect not named in the record; active means well fitted rising curve with a large enough effect; inconclusive means small, poorly fitted or top-dose-only effect; inactive means no such curve, though single readings can be large or run the other way; further: 0% is about no effect; nearly all actives have a fitted effect of over 55% in size; growth read by luminescence after 48 h
Lassa entry inh – Lassa virus entry inhibition; Lassa virus pseudotype entry inhibition, cell reporter; control for the full effect not named in the record; Potency, µM (series often up to 37.9 µM), inactives show at the highest dose activity change, negative = inhibition, actives largely listed as inhibitors; AID 540256; 300,000 tested, 1.2% active; active means well fitted inhibition curve with a large enough effect; inconclusive means small, poorly fitted or top-dose-only effect, or effect the other way; inactive means flat fitted curve, though single readings scatter; tested in HEK293 cells; further: on the % scale 0 is the no-effect control and ±100 the full control effect; nearly all actives have a fitted effect of over 50% in size; luciferase read-out
Active calls of the source: *; ? = inconclusive; . = no result given; & = joins results of further samples; ! = not confirmed by another sample; [ ] = dose if it differs, or a comment. Unless noted, the call rests on the fitted dose curve; in most records, active means well fitted curve in the direction sought with a large enough effect; inconclusive means small, poorly fitted or top-dose-only effect, or another doubt; inactive means no such curve, though single readings can be large; an effect the other way counts as inactive or inconclusive. Potency means the concentration at half of the fitted maximal effect.

Structure	MARV entry inh	RE007 growth inh	Cruzain noTriton	Cruzain inh Det	2A StopGo	NS1 function inh	SARS PLP yeast	Lassa entry inh
Cc1ccn2c(=O)c(C(=O)NCCc3ccccc3)c(O)nc2c1	-22%[46.1 µM]	.	-2%	0.9%	52%[activator]	.	.	.
COCC1CCN(C(=O)C2CCC(=O)N(CC3CCCCC3)C2)CC1 (centres undefined)	.	-9%	.	.	4%	-10%	-1%	.
CCC1CN(C(=O)N2CCC(C(=O)Nc3ccccc3F)CC2)c2ccccc2O1 (centres undefined)	.	9%	19%	-2.1%	-5%&0%	-22%	1%	13%[46.1 µM]
N#Cc1nc(COc2ccc(Cl)cc2Cl)oc1N1CCN(c2ccccc2)CC1	1%	5%	-21%	-4.5%	-5%	11µM*	-10%	4%
CN(C)CCNC(=O)C(=O)Nc1cc2c3c(c1)CCN3C(=O)CC2	.	-3%	.	.	-9%	-8%	1%	.
Cc1ccc(NC(=O)CSc2nnc(Cn3cnc4ccccc43)o2)cc1	9%	7%	2%	5.9%	-1%	-8%	3%	-3%
O=C(NCc1ccccc1F)C1CCCN1S(=O)(=O)c1ccc(Cl)cc1 (centres undefined)	.	6%	.	.	-8%	6%	0%	.
O=C(COC(=O)c1ccc(Br)c(S(=O)(=O)N2CCOCC2)c1)NC1CC1	-7%[46.1 µM]	-18%	.	.	-10%	.	-7%	-7%[46.1 µM]
CC(C)(C)NC(=O)C(=O)N/N=C/c1cccs1	?	-3%	-2%	-3.1%	54%[activator]	9%	-1%	7%
Cc1ccc(CNC(=O)c2ccc3c(c2)N(Cc2ccccc2F)C(=O)c2ccccc2S3(=O)=O)cc1	-29%[46.1 µM]	.	?	1.0%	-4%	.	.	9%[46.1 µM]
COc1ccc(NC(=S)Nc2cccc(C)n2)cc1	?	-12%	.	.	58%[activator]	0%	0%	?
Cc1ccc(C)c2[nH]c(=O)c(CCNC(=O)C(C)(C)C)cc12	.	8%	-1%	-5.9%	-5%	-61%	13%	.
COc1ccc2[nH]c(=O)c(CN(Cc3cccs3)S(=O)(=O)c3cccc4nsnc34)cc2c1	16µM*!	3%	32µM*	-0.8%	-18%	-19%	-1%	?
CCn1c(SCC(=O)NCc2cccs2)nnc1-c1ccncc1	4%	16%	3%	2.3%	2%	3%	-4%	-23%
CC(C)Cn1c(-c2ccccc2)nc2ccccc2c1=O	-23%[46.1 µM]	-7%	3%	2.7%	?	-15%	6%	-1%
CCOc1ccc(C=C2C(=O)NC(=S)NC2=O)cc1OCC	2%	21%	.	.	?	.	.	3%
Cc1ccc2c(c1)cc1c(=O)n(CC(=O)NCc3ccccn3)nc(C)n12	.	6%	.	.	-10%	-6%	2%	.
CCN1CCN(C(=O)c2cc3ccc(OC)cc3[nH]2)CC1	.	10%	.	.	62%[activator]	2%	2%	.
O=C(COc1ccccc1)NC1C(=O)N2C(C(=O)O)=C(Cl)CSC12 (centres undefined)	11%[46.1 µM]	4%	.	.	-21%	14%	0%	-1%[46.1 µM]
O=S1(=O)C=C(N2CCCCC2)c2ccccc21	-5%	-14%	-9%	7.2%	-18%	13%	3%	-3%
Cc1ccc(NC(=O)Cn2cnc(C(=O)Nc3ccc(C)c(C)c3)n2)cc1C	4%	4%	.	.	-10%	.	27%	.
Cc1cc(Cl)ccc1NC(=S)NCCCN1CCCC1=O	19%	-4%	-3%	0.6%	-2%	0%	13%	7%
COC(=O)Cn1cccc1C(=O)c1ccccc1	1%	10%	-1%	0.7%	-4%	-210%	-54%	-12%
COc1ccc(OC)c(CCNC(=O)CN2C(=O)COc3ccc(S(=O)(=O)N4CCC(C)CC4)cc32)c1	-10%[46.1 µM]	.	?	-2.5%	-2%	.	.	-13%[46.1 µM]
CCOC(=O)c1cccc(NC(=O)c2cc3ccccc3o2)c1	.	?	.	.	-12%	-90%	-6%	.
CCOC(=O)CSc1nc(N2CCOCC2)c2c(c1C#N)CC(C)(C)N(C)C2	13%&13%	6%	1%	0.1%	-22%	2%	1%	25%
CCOCCn1ccc2c(OCC(=O)Nc3cccc(F)c3)cccc2c1=O	.	.	7%	-7.3%	-3%	.	.	-21%[46.1 µM]
CC1CCN(C(=O)CSc2c(C(C)C)cnc3c2c(=O)n(C)c(=O)n3C)CC1	.	.	9%	7.9%	?	.	.	-6%[46.1 µM]
O=C(NNC(=S)Nc1ccccc1Cl)c1ccccc1Br	-27%	-7%	.	.	75%[activator]	9%	-1%	?
COc1cc(/C=N/Nc2nc(=O)[nH]nc2C)ccc1O	.	-19%	.	.	20%	6%	-1%	.
Cc1ccsc1CN(C(=O)c1oc2ccc(F)cc2c1C)C1CCS(=O)(=O)C1 (centres undefined)	-12%[46.1 µM]	.	30%	-7.3%	-20%	.	.	?
CCCCn1c(N)c(N(Cc2ccccc2OC)C(=O)C(C)Oc2ccc(Cl)cc2)c(=O)[nH]c1=O (centres undefined)	?	6%	.	.	-13%	20%	12%	20%
Cc1cc(=O)nc2c3ccccc3n(CC(=O)Nc3ccccc3Br)n12	.	-11%	.	.	-15%	2%	1%	.
COc1ccc(Cl)cc1NC(=O)c1ccoc1C	1%	?	1%	-5.9%	-8%	-16%	-19%	18%
CCCSc1ccc(C(=O)Nc2ccc(F)cc2F)cn1	?	-18%	.	.	18%	-2%	1%	-5%[46.1 µM]
CCN(CC1COc2ccccc2O1)C(=O)c1ccc(Cl)c(S(=O)(=O)N2CC(C)OC(C)C2)c1 (centres undefined)	?	2%	.	.	?	.	4%	?
Nn1cnnc1N/N=C/c1ccc(Cl)c([N+](=O)[O-])c1	?	-14%	.	.	-14%	.	-4%	-20%[46.1 µM]
COc1ccc(NC(=S)Nc2cccc([N+](=O)[O-])c2)cc1	?	3%	-10%	1.7%	21%	6%	-6%	6%
O=C(CCN1C(=O)c2ccccc2C1=O)Nc1ccc(-c2nc3ccccc3s2)cc1	?	8%	25µM*	-2.1%	20%	-2%	24%	?
Cc1cc(NC(=O)c2cc(-c3ccc(Cl)c(Cl)c3)on2)n(-c2ccccc2)n1	-4%[46.1 µM]	.	0%	-0.3%	3%	.	.	8%[46.1 µM]
CC(C)(C)NC(=O)/C(=C\c1cccnc1)NC(=O)c1ccco1	.	14%	.	.	-8%	-1%	0%	.
CS(=O)(=O)N1CCN(C(=O)CSc2ccccc2)CC1	1%	6%	.	.	6%	0%	-5%	?
Cc1ccc(-c2nnn(CC(=O)N(CC3CCCO3)C(C(=O)NC(C)(C)C)c3ccc(F)cc3)n2)o1 (centres undefined)	?	6%	24%	-2.5%	-17%	-3%	-3%	0%
Cn1nccc1NC(=O)Nc1ccc(OC(F)(F)F)cc1	26%[46.1 µM]	7%	.	.	2%	1%	1%	11%[46.1 µM]
CCNC(=O)[C@H]1O[C@@H](n2cnc3c(N)ncnc32)[C@H](O)[C@@H]1O	19%	5%[18.4 µM]	.	.	-15%	-5%	-4%	?
CS(=O)(=O)c1ncc(Cl)c(C(=O)N(Cc2ccc(Cl)cc2)Cc2ccco2)n1	?	.	29%	-8.2%	?	.	.	?
COCCn1ccc2c(OCC(=O)NCCc3ccc(OC)c(OC)c3)cccc2c1=O	-3%	-9%	.	.	0%	.	1%	3%
COc1ccc2c(-c3ccccc3)cc(SCC(N)=O)nc2c1	5.6µM*	6%	.	.	-23%	-5%	-7%	?
CN(C(=O)CSc1nnc(-c2ccccc2)n1C)C1CCS(=O)(=O)C1 (centres undefined)	?	21%	.	.	8%	.	2%	-6%
CCOc1ccc(N2CC(C(=O)Nc3ccc(S(=O)(=O)Nc4ncccn4)cc3)CC2=O)cc1 (centres undefined)	?	3%	9%	-4.2%	0%	4%	-4%	-5%
CCCCS(=N)(=O)CCC(N)C(=O)O (centres undefined)	7%&7%&7%&10%&7%	.	3%&9%	10%&3.1%	-8%	2%	.	-1%
Cc1cccc(C)c1-n1c(=O)n(Cc2ccccc2)c(=O)c2[nH]cnc21	-6%	20%	.	.	-15%	1%	2%	3%
Cc1ccc(S(=O)(=O)N2CCN(S(=O)(=O)c3ccccc3)C2c2ccc(N(C)C)cc2)cc1 (centres undefined)	?	-2%	?	1.1%	8%	-6%	7%	-6%
O=C(NCc1ccc(N2CCCC2=O)cc1)Nc1cccc2ccccc12	-2%[46.1 µM]	12%	7%	7.0%	-10%	11%	0%	17%
CCOc1ccccc1NC(=O)c1c(NC(=O)c2cccc(C)c2)sc2c1CCCC2	.	.	-6%	0.3%	-10%	.	.	13%[46.1 µM]
C=CCn1c(CCNC(=O)c2cccs2)nnc1SCC(=O)c1ccc(Br)cc1	?	-6%	-3%	4.2%	-13%	-1%	6%	24%
COc1ccc(C)cc1S(=O)(=O)NCC(c1ccc2c(c1)OCO2)N1CCN(C)CC1 (centres undefined)	?	-23%	.	.	12%	.	4%	?
O=C(COc1cccc([N+](=O)[O-])c1)NN1C(=O)c2ccccc2C1=O	5%	-10%	.	.	-18%	11%	2%	-17%
CC(C)C12CN3CC(C(C)C)(CN(C1)C3c1cccnc1)C2=O (centres undefined)	-3%	2%	-4%	11%	-22%	2%	2%	3%
COc1ccc(Nc2ccc(Nc3ccc(OC)cc3)nn2)cc1	.	-21%	12%	-3.8%	0%	14%	21%	.

Next structures:
Structure	MARV entry inh	RE007 growth inh	Cruzain noTriton	Cruzain inh Det	2A StopGo	NS1 function inh	SARS PLP yeast	Lassa entry inh
CCN1C=CC(=C2C(=O)c3ccccc3C2=O)C=C1	1.8µM*	?	-25%	-14%	4.5µM*	2%	-26%	0.65µM*
O=C(O)CCC(=O)CCC(=O)c1ccccc1	-11%	17%	-2%	4.4%	25%	7%	4%	13%
c1ccc(-c2nc(-c3ccncc3)no2)cc1	6%	-19%	-13%	-0.7%	38%[activator]	-12%	.	0%
Cc1cc(C(=O)N/N=C/c2ccccc2)c(C)o1	?	-22%	.	.	14%	-7%	-2%	-6%[46.1 µM]
CCOC(=O)c1cnc2c(C)c(Cl)ccc2c1Nc1ccc(C)cc1C	.	.	1%	-0.6%	-12%	.	.	10%[46.1 µM]
